GALR2 agonist – agonists of human galanin receptor 2 (GALR2). GALR2-expressing cells, agonist activation read-out. activation, %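 (tested at 5 µM)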. 140,000 compounds, 0.48% hits. AID 803;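 active = above mean plus 3 SD of all compounds, about 5% in these data, not always enough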;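 also: 0% = vehicle buffer wells and 100% = reference agonist at full effect; tested in CHO reporter cells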
Insulin prom inh – TRM-6 insulin promoter activity inhibition; AID 1273; inhibition, % at 2 µM; 130,000 compounds, 0.9% hits; TRM-6 cells (human fetal islet line), insulin promoter-eGFP reporter, imaging; reporter expression induced with tamoxifen;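 active = inhibition above the mean plus 3 SD, with well images judged a real hit on visual review, cut at about 60% in these data, passing the limit was not always enough; inconclusive = inhibition over the cutoff but images rejected on review; inactive = inhibition not above the cutoff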
PKD1 kinase inh – blocks activity of human protein kinase D1. Q15139. PKD1 kinase fluorescence polarization assay. inhibition, %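 (about 10 µM by stock and volumes)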. 200,000 compounds, 0.056% hits. AID 797;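 active = inhibition of 50% or more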;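 also: controls were vehicle for no effect and a reference inhibitor for full effect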
Target sequence (Q15139 whole entry, looked up): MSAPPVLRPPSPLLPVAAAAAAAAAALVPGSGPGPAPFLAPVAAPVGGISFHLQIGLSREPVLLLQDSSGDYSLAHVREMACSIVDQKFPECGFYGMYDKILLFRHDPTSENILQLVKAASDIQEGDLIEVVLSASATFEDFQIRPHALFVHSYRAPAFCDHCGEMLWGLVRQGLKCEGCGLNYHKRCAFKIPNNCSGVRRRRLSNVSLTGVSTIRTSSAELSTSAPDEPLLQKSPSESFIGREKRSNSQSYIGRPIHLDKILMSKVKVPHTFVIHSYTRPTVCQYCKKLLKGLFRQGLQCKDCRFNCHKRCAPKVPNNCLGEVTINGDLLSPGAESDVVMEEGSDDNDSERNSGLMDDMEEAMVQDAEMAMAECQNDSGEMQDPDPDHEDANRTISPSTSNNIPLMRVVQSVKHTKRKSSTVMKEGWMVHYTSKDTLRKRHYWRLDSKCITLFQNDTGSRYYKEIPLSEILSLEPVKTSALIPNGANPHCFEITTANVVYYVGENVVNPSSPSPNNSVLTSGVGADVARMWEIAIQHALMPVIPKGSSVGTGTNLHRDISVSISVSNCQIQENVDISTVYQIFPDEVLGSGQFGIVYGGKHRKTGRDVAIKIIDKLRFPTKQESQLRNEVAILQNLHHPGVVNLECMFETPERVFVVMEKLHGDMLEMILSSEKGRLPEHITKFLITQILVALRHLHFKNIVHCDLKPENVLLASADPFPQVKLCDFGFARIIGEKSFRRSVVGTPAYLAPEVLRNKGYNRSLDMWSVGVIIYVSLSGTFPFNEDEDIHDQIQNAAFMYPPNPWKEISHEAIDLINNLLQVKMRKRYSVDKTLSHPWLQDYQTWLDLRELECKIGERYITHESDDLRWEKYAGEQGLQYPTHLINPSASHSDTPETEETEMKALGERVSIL
RGS16-Gao HTS – regulators of human RGS16-Galphao interaction. O15492+P09471. bead-based flow cytometry RGS16-Galphao binding, fluorescence; actives lie on both sides. binding response (% of control), % at 10 µM. 220,000 compounds, 0.38% hits. AID 1441;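 active = below 25% or above 175%, edge rows of some plates excepted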;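 also: Galphao activated by GDP with aluminum fluoride before binding; 100% = wells without compound and 0% = beads without RGS; some results beyond the cut were filed as inactive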
HSV augment – increases HSV replication in cells | maximum fold increase | 220,000 compounds, 0.005% hits | HSV replication augmentation in cells, fold increase;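 active = peak rise of 1.5-fold or more in the series; inconclusive = self-fluorescent or not available for retest; tested in PC3 cells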;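 also: first round at 10 µM; read as green reporter fluorescence; hits show the peak of a series up to 25 µM; 1 = signal of infected wells without compound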
Insulin prom inh cell count – second read-out of Insulin prom inh, no call of its own (marks repeat the call); normalized cell count, %; measured here: cell count, toxicity; reference of the scale not given here;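 cells exposed to compound for 48 h; stained nuclei by imaging scaled within each plate; lower means fewer cells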
HSV augment primary fold – recorded beside HSV augment, whose call it bears; fold increase; compound at 10 µM; measured here: primary screen fold increase 10 uM; tested in PC3 cells;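 GFP signal in the first replicate; 1 = infected wells without compound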
Numbers without * were called inactive; i = inactive; ? = inconclusive; · = no result given; [ ] = dose if it differs, or a comment.

Start of the listing, in advance:
SMILES	GALR2 agonist	Insulin prom inh	Insulin prom inh cell count	PKD1 kinase inh	RGS16-Gao HTS	HSV augment	HSV augment primary fold
CCSc1nc(O)c(C2OC(=O)c3c2ccc(OC)c3OC)c(=O)n1CC (stereo unspecified)	-1.1	62	102	-3	101	i	0.88
Cc1cc(C)n(-c2nc3c(c(=O)[nH]c(=O)n3C)n2CC(O)c2ccccc2)n1 (stereo unspecified)	-1.3	-21	40	5	102	i	0.97
CCOC(=O)C1CCN(C2CCN(Cc3nc(-c4ccccc4)no3)CC2)CC1	·	·	·	-2	99	i	0.94
CN(C)c1ccc(CNC23CC4CC(CC(C4)C2)C3)cc1	-1.4	·	·	-6	·	·	·
CCCS(=O)(=O)N1CCC(C(=O)N2CCN(C(=O)OCC)CC2)CC1	-0.7	·	·	3	102	i	1
O=C(NN1CCOCC1)c1ccc(Cl)s1	·	·	·	3	111	i	1.1
Cc1nc2cc(CO)ccc2n1C	-2.2	-9	76	-5	100	i	0.97
CC(C)N1C(=O)c2ccccc2C1C(=O)NC1CCCCCC1 (stereo unspecified)	-1.7	-22	99	-6	102	i	0.91
COc1ccc(C(c2nnnn2Cc2ccccc2)N2CCN(c3ccccc3)CC2)cc1 (stereo unspecified)	0.3	·	·	-7	106	i	0.93
Cc1occc1-c1nnc(SCC(=O)Nc2ccccc2)n1CCc1ccccc1	-3.1	19	100	-8	94	i	0.77
Cc1nc(NCc2ccccc2)c2cc[nH]c2n1	·	·	·	·	103	i	0.9
Cc1onc(-c2ccccc2)c1CNC(=O)CN1C(=O)c2ccccc2C1=O	·	·	·	·	100	i	1
CC(C)(O)C(=O)NN(Cc1ccccc1)c1ccccc1	0.4	-73	86	-5	93	i	1.1
CCn1c(SCC(=O)NC2CCCCC2)nnc1-c1cccs1	-1.7	-35	99	-9	101	i	0.91
COc1ccc(N2C(=O)CC3(CCCC3)CC2=O)cc1	-0.6	·	·	-3	107	i	1.1

The whole of this part, from the first entry:
SMILES	GALR2 agonist	Insulin prom inh	Insulin prom inh cell count	PKD1 kinase inh	RGS16-Gao HTS	HSV augment	HSV augment primary fold
CCSc1nc(O)c(C2OC(=O)c3c2ccc(OC)c3OC)c(=O)n1CC (stereo unspecified)	-1.1	62	102	-3	101	i	0.88
Cc1cc(C)n(-c2nc3c(c(=O)[nH]c(=O)n3C)n2CC(O)c2ccccc2)n1 (stereo unspecified)	-1.3	-21	40	5	102	i	0.97
CCOC(=O)C1CCN(C2CCN(Cc3nc(-c4ccccc4)no3)CC2)CC1	·	·	·	-2	99	i	0.94
CN(C)c1ccc(CNC23CC4CC(CC(C4)C2)C3)cc1	-1.4	·	·	-6	·	·	·
CCCS(=O)(=O)N1CCC(C(=O)N2CCN(C(=O)OCC)CC2)CC1	-0.7	·	·	3	102	i	1
O=C(NN1CCOCC1)c1ccc(Cl)s1	·	·	·	3	111	i	1.1
Cc1nc2cc(CO)ccc2n1C	-2.2	-9	76	-5	100	i	0.97
CC(C)N1C(=O)c2ccccc2C1C(=O)NC1CCCCCC1 (stereo unspecified)	-1.7	-22	99	-6	102	i	0.91
COc1ccc(C(c2nnnn2Cc2ccccc2)N2CCN(c3ccccc3)CC2)cc1 (stereo unspecified)	0.3	·	·	-7	106	i	0.93
Cc1occc1-c1nnc(SCC(=O)Nc2ccccc2)n1CCc1ccccc1	-3.1	19	100	-8	94	i	0.77
Cc1nc(NCc2ccccc2)c2cc[nH]c2n1	·	·	·	·	103	i	0.9
Cc1onc(-c2ccccc2)c1CNC(=O)CN1C(=O)c2ccccc2C1=O	·	·	·	·	100	i	1
CC(C)(O)C(=O)NN(Cc1ccccc1)c1ccccc1	0.4	-73	86	-5	93	i	1.1
CCn1c(SCC(=O)NC2CCCCC2)nnc1-c1cccs1	-1.7	-35	99	-9	101	i	0.91
COc1ccc(N2C(=O)CC3(CCCC3)CC2=O)cc1	-0.6	·	·	-3	107	i	1.1
Cc1ccc2cc(/C=C/C(=O)c3ccco3)c(Cl)nc2c1	·	·	·	·	96	i	0.98
COc1ccc(CN2CCn3nc(C(=O)NC(C)C)cc3C2=O)cc1	·	-15	102	-7	99	i	0.87
CC(=O)Nc1nnc(SCc2ccccc2F)s1	-1.4	64	154	-4	102	i	1
O=C(CCc1nnc(Cc2ccc3c(c2)OCO3)o1)NCc1nc2ccccc2s1	·	78*	51*	-1	112	i	0.98
O=C(Cn1cc2c(n1)CCCCC2)NCc1ccccc1	·	·	·	-4	94	i	1.2
Cc1ccnc(NC2(C(F)(F)F)N=C3SCCN3C2=O)c1 (stereo unspecified)	·	-12	118	-1	102	i	0.93
CNC(=O)c1[nH]cnc1C(=O)Nc1ccccc1OC	-1.5	15	120	-4	35	i	0.99
COC(=O)C1CCN(CC(=O)Nc2ccc(OC)c(Cl)c2)CC1	·	33	114	0	108	i	0.86
Cc1nc2ccccc2n(CC(=O)Nc2cc(Cl)cc(Cl)c2)c1=O	·	-25	136	-6	101	i	0.91
CC1(C)c2cc(Cl)ccc2-n2c1cc(O)c(-c1ccccc1)c2=O	·	·	·	·	94	i	1
CC(=O)/C(N=Nc1c(C)n(C)n(-c2ccccc2)c1=O)=C(\C)O	·	·	·	0	121	i	0.97
COc1ccc(N2CCN(C(C)C(=O)N3CCCC3)CC2)cc1 (stereo unspecified)	·	-23	62	1	127	i	0.97
COc1ccccc1OCCc1nnc(N)s1	-0.7	·	·	0	96	i	1.1
OCCN(Cc1ccccc1)Cc1cccc(Cl)c1Cl	-0.8	-31	117	-6	103	i	0.89
CCOC(=O)c1sc(NC(=O)c2ccc(CC)s2)nc1C	-4.6	-40	90	-2	101	i	1.1
CNC(=S)N1CCC(NC(=O)C(Cc2ccc(F)cc2)NC(C)=O)CC1 (stereo unspecified)	·	·	·	0	102	i	1
COc1ccc(C(=O)N2CC(c3ccccc3)CC2=O)cc1 (stereo unspecified)	·	·	·	·	99	i	1
CCNc1nc(Oc2ccc(=O)[nH]n2)nc(N2CCOCC2)n1	-1.6	75*	98*	1	113	i	0.74
Nc1nc(SCC(=O)NC2CCCC2)[nH]c(=O)c1-c1ccccc1	-0.9	17	73	0	92	i	0.73
O=C(O)CC(c1ccccc1)c1ccccc1	-4.2	0	70	17	105	i	1.1
CCC(=O)Nc1ccc(S(=O)(=O)N2CCCCC2)cc1OC	0.4	20	107	2	103	i	0.9
Nc1ccccc1C(=O)N/N=C1/C2CN3CCN(C2)CC1(Cc1ccccc1)C3	·	-100	68	6	99	i	0.95
COc1ccc(-c2c3c(=O)n(C)c(=O)n(C)c3cn2Cc2cccnc2)cc1	-2.0	73*	76*	6	104	i	0.92
Cc1ccc(N2C(N)=C(C#N)C3(C(=O)N(C)c4ccccc43)C3=C2CC(C)(C)CC3=O)cc1Cl (stereo unspecified)	-3.4	-19	145	-1	156	i	0.77
O=C(CSc1nc(-c2ccc(F)cc2)cs1)N1CCc2ccccc21	-4.5	-10	101	10	81	i	0.99
Cn1c(=O)oc2cc(S(=O)(=O)NCCC(=O)N3CC=C(c4ccccc4)CC3)ccc21	-2.1	·	·	10	99	i	0.94
O=C(O)C1Cn2c(nc3c(c2=O)C2(CCCC2)Cc2ccccc2-3)S1 (stereo unspecified)	·	11	53	0	108	i	0.97
CCC(=O)NC(c1ccccc1)c1nc2ccccc2[nH]1 (stereo unspecified)	-3.0	-16	65	1	46	i	0.98
COc1cc(C(=O)O)nc2ccccc12	-1.5	·	·	-15	97	i	0.97
Cc1ccc(NC(=O)c2ccc(C#CC3(O)CCCCC3)cc2)cc1C	-0.3	25	130	-12	106	i	0.56
C[C@H](NS(=O)(=O)c1ccc(Cl)cc1)C(=O)OCC(=O)c1ccc[nH]1	·	·	·	·	99	i	0.84
CC(=O)C1=C(C)OC(N)=C(C#N)C1c1cccc([N+](=O)[O-])c1 (stereo unspecified)	·	-17	151	0	104	i	1.1
CCS(=O)(=O)N1CCCC(C(=O)NCc2ccc3c(c2)OCO3)C1 (stereo unspecified)	-0.4	-8	94	5	108	i	1
NC(=O)c1ccccc1NC(=O)Nc1ccccc1Cl	·	13	123	1	100	i	0.86
Cc1[nH]c2c(C)cccc2c1CCNS(=O)(=O)c1cccc([N+](=O)[O-])c1	-1.3	·	·	-1	103	i	0.9
The results go on.
SMILES	GALR2 agonist	Insulin prom inh	Insulin prom inh cell count	PKD1 kinase inh	RGS16-Gao HTS	HSV augment	HSV augment primary fold
CCOC(=O)c1cnc(SCC(C)C)nc1N	-0.3	-3	60	-5	116	i	0.87
Cc1ccc(CCc2nnc(SCC(=O)Nc3cc(Cl)ccc3Cl)n2-c2ccccc2)o1	-0.8	-10	78	-2	99	i	0.91
Cc1ccc(OCC(=O)Nc2ccc(-c3nc4ncccc4o3)cc2)cc1	-0.1	-13	140	-2	185	i	0.94
COc1cc(NC(=O)CN(C)S(=O)(=O)c2ccc3nc(C)sc3c2)cc(OC)c1	·	·	·	-5	101	i	0.92
Cc1oc(-c2ccc(Cl)cc2)nc1CSCC(=O)NCCCN1CCOCC1	-2.6	·	·	-5	228*[activator]	i	1
CCOc1cc2nc(-c3ccc(OC)c(OC)c3)nc(N3CCOCC3)c2cc1OC	-0.9	·	·	-1	101	i	0.47
Cc1ccc2c(C)c(C(=O)N3CCC(N4CCC(C(=O)NC5CC5)CC4)CC3)oc2c1	·	·	·	·	98	i	0.88
CCOC(=O)c1c(C)c(C(=O)N2CCN(c3ccccc3)CC2)c(C)n1C	·	-100	48	-2	121	i	0.81
COC(=O)c1ccc(-c2nc(-c3ccc(Br)o3)no2)cc1	-2.2	·	·	-8	102	i	0.94
O=C(Nc1ccc2c(c1)OCCO2)C1CCN(c2cnccn2)CC1	-0.6	·	·	2	92	i	0.88
O=C(O)CC1(CC(=O)Nc2ccc3c(c2)OCCCO3)CCCCC1	·	·	·	·	86	i	1.1
O=S(=O)(NCc1ccccc1)c1ccc(S(=O)(=O)NCC2CCCO2)cc1 (stereo unspecified)	·	·	·	-4	47	i	1
O=C(CN1C(=O)c2ccccc2C1=O)NN1C(=O)c2ccccc2C1=O	-0.1	15	78	0	38	i	1.2
CC(C)(C)NC(=O)C(c1ccccc1)N(Cc1ccco1)C(=O)c1csnn1 (stereo unspecified)	-1.9	·	·	-10	103	i	0.92
CC(=O)OCC(=O)Nc1ccc(Br)c(C)c1	·	·	·	0	103	i	1.1
Cc1ccccc1Nc1ncnc(N)n1	·	-82	151	3	108	i	0.98
COc1ccc(S(=O)(=O)N2CCCCC2)cc1NC(=O)CSc1nccn1C	·	·	·	-3	96	i	0.87
COc1ccc(-c2cc(CCCC(=O)NCc3ccccn3)no2)cc1	-3.1	·	·	-1	108	i	1
CCc1ccc(CNc2ccc(N3CCN(C(C)=O)CC3)cc2)cc1	-2.1	43	68	-14	121	?	·
COc1ccc(OC)c2sc(N3CCc4ccccc4C3)nc12	·	-56	123	-5	94	i	0.9
Brc1ccc(-c2nnc(SCCC3OCCCO3)o2)cc1	-1.4	·	·	6	96	i	0.9
c1ccc(-c2csc3nnc(SCc4ccc5c(c4)OCCO5)n23)cc1	-0.5	30	137	-7	101	i	0.99
c1ccc(OCc2nn3c(-c4ccccn4)nnc3s2)cc1	-1.6	·	·	-13	101	i	0.94
COc1ccccc1NC(=O)c1ccc(NC(=O)COC(=O)C2CC2C)cc1 (stereo unspecified)	-1.3	19	79	2	100	i	0.93
CCC(=O)N1CCc2cc(S(=O)(=O)NCCCN(CC)Cc3ccccc3)ccc21	-3.4	0	72	-9	100	i	0.98
COc1cc(S(=O)(=O)Nc2ccncc2)ccc1F	·	·	·	-10	99	i	1.1
CC1CN(c2oc(-c3ccccc3Cl)nc2C#N)CC(C)O1 (stereo unspecified)	-0.2	-28	81	-1	101	i	0.88
Nc1cc(Cl)ccc1N1CCCCCC1	·	67	185	-1	109	i	1.1
Cc1ccc(OCC(=O)NCc2cccs2)cc1	-1.9	-41	107	-9	98	i	0.89
COc1cc(C)c(S(=O)(=O)Nc2ccc(CC(=O)O)cc2)cc1C	-0.7	-1	51	-10	99	i	0.87
CC(=O)N1CCc2cc(S(=O)(=O)NC(CC(C)C)C(=O)N3CCn4c3nc3ccccc34)ccc21 (stereo unspecified)	-1.2	10	117	7	105	i	0.91
CCCCN(CC)C(=O)CN(C)S(=O)(=O)c1cccc2nsnc12	-2.9	-93	62	4	98	i	0.88

Screening data (PubChem)
